eIF4H FP inh – inhibitors of RNA binding by human eIF4H; Q15056; eIF4H fluorescence polarization binding assay; inhibition, % at 35 µM; hit rate 0.94% among 290,000; AID 2012;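 active means 50% or more with normal probe brightness, or confirmed in later tests; inconclusive means above 50% with abnormal brightness, or retests that disagree; inactive means below 50% or failed in later tests; about a fifth of its hits are not listed in these tables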;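 further: calls also rest on retests at 20 µM and on dose response follow-up; 0% = protein and probe with vehicle and 100% = probe without protein; strong numbers were not always called active; many hits fall short of the cut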
CSC inhib – blocks cancer stem cells | hit rate 1.1% among 300,000 | cancer stem cell-like cells viability, luminescence | inhibition, % at 7.5 µM;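 active means mean at 75% or more and at least half the replicates too; inconclusive means mean and replicates disagree; tested in HMLE shEcad cells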;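 further: 0% = median of negative and 100% = median of positive control wells; the first replicate is given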
Rce1 inh – yeast Ras-converting enzyme inhibition; Q03530; yeast membranes, quenched prenylated peptide cleavage fluorescence; calls only; hit rate 0.27% among 290,000; AID 2563;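 active means fall in fluorescence gain of 50% or more versus controls, with final raw signal at or below 3038400; inconclusive means same 50% fall but final raw signal above 3038400; inactive means fall in fluorescence gain under 50%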;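 further: plate controls were neutral control wells for no effect and wells lacking membranes for full effect; tested at 10 µM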
MT1-MMP act inh – MT1-MMP (human) activation inhibition; hit rate 0.061% among 360,000; GFP/RFP ratio change, % at 20 µM; AID 651647; P50281; HT1080 RFP-PRO-GFP cells, GFP/RFP ratio fluorescence, overnight; percent of plate control window, DMSO zero;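 active means GFP/RFP ratio change of at least 30% with cell ATP level not reduced by more than half and red fluorescence within 50% of control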; further: strong numbers were not always called active
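Assay system: RFP-PRO-GFP reporter HT1080 cells; read-out basis: GFP/RFP fluorescence ratio; benchmarks: DMSO wells and RFP-L50D-GFP cells; doses: 20 µM single dose, 1% DMSO; schedule: overnight cell settling, then overnight compound exposure, 37 °C, 5% CO2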
Env fusion inh – inhibitors of HIV Env-mediated cell fusion. AID 651610. HeLa-JRFL Env/CEM21 cell fusion, luciferase. hit rate 1.1% among 360,000. inhibition, % at 12.3 µM;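 active means mean replicate inhibition score of at least 50 and every replicate individually at or above 50; inconclusive means only one of the two criteria met; inactive means mean below 50 and not all replicates reaching 50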;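 further: 0% = plate neutral controls and 100% = maraviroc near 300 nM; one replicate is shown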
PABP FP inh – blocks human PABP binding to poly(A) RNA | inhibition, % at 35 µM | fluorescence polarization | P11940 | hit rate 1% among 290,000 | AID 2014;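 active means 50% or more with normal probe brightness, or confirmed in later tests; inconclusive means above 50% with abnormal brightness, or retests that disagree; inactive means below 50% or failed in later tests; about a fifth of its hits are not listed in these tables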;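 further: calls also rest on retests at 20 µM and on dose response follow-up; controls were probe without protein and protein plus probe with vehicle; some compounds called inactive have numbers as strong as hits; many hits fall short of the cut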
Target sequence (P11940 whole entry, looked up): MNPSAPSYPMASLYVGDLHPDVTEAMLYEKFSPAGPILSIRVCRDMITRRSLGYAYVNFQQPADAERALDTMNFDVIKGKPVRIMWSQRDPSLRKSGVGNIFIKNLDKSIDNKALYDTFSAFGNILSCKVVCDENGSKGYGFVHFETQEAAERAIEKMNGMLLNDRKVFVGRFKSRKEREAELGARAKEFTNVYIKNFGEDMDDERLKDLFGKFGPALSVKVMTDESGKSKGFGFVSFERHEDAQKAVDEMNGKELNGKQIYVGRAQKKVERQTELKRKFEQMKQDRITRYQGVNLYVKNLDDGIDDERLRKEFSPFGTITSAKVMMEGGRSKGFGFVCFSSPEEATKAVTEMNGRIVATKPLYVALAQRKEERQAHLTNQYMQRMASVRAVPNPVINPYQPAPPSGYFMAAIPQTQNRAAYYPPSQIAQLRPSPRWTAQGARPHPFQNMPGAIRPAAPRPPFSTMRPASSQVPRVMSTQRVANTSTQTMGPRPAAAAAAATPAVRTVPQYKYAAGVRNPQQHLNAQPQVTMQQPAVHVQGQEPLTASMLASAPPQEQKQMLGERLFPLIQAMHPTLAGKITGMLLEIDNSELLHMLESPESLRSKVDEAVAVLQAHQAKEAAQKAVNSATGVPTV
UUG fidelity – alters start codon recognition fidelity in yeast. hit rate 0.13% among 350,000. S. cerevisiae UUG-firefly luciferase reporter, luminescence/redox ratio. activity score, % at 18.7 µM;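 active means replicate mean at a twofold rise or more, about +100% in these data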;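 further: firefly luciferase made from a UUG start codon reports start codon fidelity; reporter light over untreated wells divided by growth signal over untreated wells; some hits fall short of that in this replicate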
eIF4H FP inh retest – second read-out of eIF4H FP inh, no call of its own (marks repeat the call); inhibition, %; compound at 20 µM; confirmation average;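 mean of two retest wells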
PABP FP inh retest – second read-out of PABP FP inh, no call of its own (marks repeat the call); inhibition, %; compound at 20 µM; confirmation repeats;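 mean of two retest wells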
MT1-MMP act inh RFP – further read-out of MT1-MMP act inh, marked with its call; RFP signal change, %; measured here: RFP expression control read;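 0 = vehicle wells; hits needed this value within 50% of zero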
The depositor's hits bear a star; i = inactive; ? = inconclusive; nt = not tested or not shown.

SMILES	eIF4H FP inh	CSC inhib	Rce1 inh	MT1-MMP act inh	MT1-MMP act inh RFP	Env fusion inh	PABP FP inh	UUG fidelity	others
CC1(C)CC(=O)c2sc(NC(=O)Cc3cccs3)nc2C1	0	-9	nt	-2	-2	-29	2	nt
COc1cccc(CC(=O)Nc2ccc(S(=O)(=O)N3CCCCC3)cc2)c1	nt	0	nt	3	-2	nt	nt	-7
CCc1c(C(=O)NNC(=S)NCCc2ccccc2)csc1C	8	nt	i	6	0	nt	-16	-9
O=S(=O)(c1ccc2oc(=S)[nH]c2c1)N1CCOCC1	nt	-15	nt	5	7	nt	nt	3
Cc1ccc(OCC(=O)NC2CC(C)(C)NC(C)(C)C2)c(C)c1	-3	-4	i	-4	0	6	8	-9
O=C(NCCNC(=O)c1ccc(Br)o1)c1ccc(Br)o1	-3	-8	nt	2	-5	nt	3	-11
CCC(=O)Nc1ccc(NC(=O)c2cccc3ccccc23)cc1	8	-2	i	-1	-3	0	-4	2
Cc1ccc(/C=C/C2=NN(Cc3ccc(Cl)c(Cl)c3)C(=O)CC2)cc1	2	-14	i	2	10	nt	-5	-16
Cc1cccc(NC(=O)CCc2ccccc2)c1	5	14	i	1	1	-2	3	-8
COC(=O)c1oc2ccc(Br)cc2c1NC(C)=O	2	-8	i	-8	3	-7	0	-11
Cc1onc(-c2ccccc2Cl)c1C(=O)O/N=C(\N)c1cccc([N+](=O)[O-])c1	nt	nt	nt	2	-7	-29	nt	11
C=CCNC(=O)NC(=O)COn1nnc2ccc(S(=O)(=O)N(C)C)cc21	-5	-10	i	1	4	nt	-11	nt
COc1ccc2[nH]c(C(=O)N(Cc3ccccn3)Cc3ccccn3)cc2c1	-4	-12	i	-1	1	7	9	nt
O=C(c1nnsc1S(=O)(=O)c1ccc(Cl)cc1)N1CCOCC1	4	nt	i	-27	-28	27	24	nt
Cn1c(-c2ccc(F)c(F)c2)cc2onc(-c3ccccc3)c2c1=O	nt	4	nt	2	-17	-194	nt	-19
S=C(c1ccc(Br)cc1)N1CCCC1	-6	-2	i	2	1	-9	-6	-30
Cc1ccccc1CSCC(=O)Nc1ccccc1-c1ccccc1	-5	39	i	-5	-4	12	3	nt
CN1CCN(CC(=O)Nc2nc(-c3c[nH]c4ccccc34)cs2)CC1	14	0	i	0	1	12	0	-13
Cc1sc2nc(SCC(=O)Nc3ccccc3F)[nH]c(=O)c2c1C	-13	nt	i	1	5	-9	-5	-18
Cc1ccc(N=Nc2c(N)nn3c(N)c(C#N)c(C)nc23)cc1	1	-4	i	2	1	20	11	-25
CC(=O)c1cccc(NC(=O)NCc2ccco2)c1	0	-14	i	-4	1	-16	-7	-9
O=C(OCc1nnc(-c2ccccc2)o1)c1ccc(Br)o1	nt	-1	i	1	1	-3	nt	-13
Cn1ncc([N+](=O)[O-])c1C(=O)Nc1cccc(Cl)c1	10	3	i	0	0	5	2	0
COc1cccc(Cn2c(=O)ccc3ccccc32)c1	-4	-24	i	-2	3	2	0	nt
COc1ccc(Cl)cc1S(=O)(=O)N(C)CC(=O)N1CCOCC1	-2	0	i	-1	0	4	1	-11
CCn1c(-c2cc(Br)cc(OC)c2O)nc2cc(S(=O)(=O)N(C)C)ccc21	2	16	nt	2	-1	-42	1	-7
CCOCCCNC(=O)c1ccc2c(=O)n(Cc3ccc4c(c3)OCO4)c(=S)[nH]c2c1	-3	-7	i	3	-2	9	6	-2
CC1=C(C#N)C(=O)NC(=O)/C1=C\c1ccc(-c2ccc(C)cc2[N+](=O)[O-])o1	?	nt	i	-8	3	7	3	nt
Cc1cc(S(=O)(=O)NC[C@H]2O[C@@H](n3ccc(N)nc3=O)[C@H](O)[C@@H]2O)c(C)s1	nt	nt	nt	2	1	7	nt	-14
O=C(Nc1ccccn1)C1CCCN1S(=O)(=O)c1ccc(Cl)cc1 (stereo not given)	-7	-10	i	-6	1	-4	-2	-17
O=C(Nc1ncccc1O)c1cccc(S(=O)(=O)NCc2ccccc2)c1	nt	-8	i	0	-2	nt	nt	-7
O=C(/C=C/c1ccc[nH]1)c1ccccc1	?	6	i	-1	1	-12	2	nt
COc1cccc(C(=S)N2CCOCC2)c1OS(=O)(=O)c1ccc(Cl)cc1	4	-11	i	-2	1	8	-8	-8
Cc1ncc([N+](=O)[O-])n1CC(=O)NC1CCCCCC1	-6	4	i	5	4	-5	-6	nt
CC(C)C(=O)NC(c1ccc([N+](=O)[O-])cc1)c1c(O)ccc2ccccc12 (stereo not given)	2	nt	i	-2	-7	-39	1	-5
CC(=O)Nc1ccc(-c2ccc(NC(C)=O)cc2)cc1	1	-4	i	3	3	-33	-17	nt
COc1ccccc1-c1noc(-c2cc(OC)c(OC)c(OC)c2)n1	-1	-9	i	17	-6	13	4	-16
COc1ccc([N+](=O)[O-])cc1NC(=O)COC(=O)C12CC3CC(CC(O)(C3)C1)C2	nt	nt	nt	7	5	10	nt	-13
COc1ccccc1CNC(=O)CSc1nc(-c2ccccc2)cn1N	-10	2	i	2	3	-75	12	-8
COc1ccc(C(=O)NCCCOC(C)C)cc1OC1CCN(C(C)=O)CC1	3	-12	i	-2	-1	-273	4	-16
CC(C)C1C(=O)N(Cc2cn(CCC3OCCO3)nn2)CCS(=O)(=O)N1Cc1ccc(-c2ccccc2Cl)cc1 (stereo not given)	nt	nt	nt	-2	-16	5	nt	-5
CCN(CC)c1ccc(NC(=O)CN2C(=O)NC3(CCc4ccccc43)C2=O)cc1 (stereo not given)	nt	11	nt	-2	2	nt	nt	-12
Cc1ccc(NC(=O)NC2CCCCC2)cc1S(=O)(=O)N1CCOCC1	0	4	i	3	-3	-13	-8	-6
O=C(COC(=O)c1cccnc1Cl)Nc1cc(S(=O)(=O)N2CCOCC2)ccc1Cl	nt	-7	nt	4	2	-8	nt	-3
CCOc1ccccc1NC(=O)COc1cccnc1[N+](=O)[O-]	nt	nt	nt	4	-2	11	nt	8

13 successive entries from above, quoted:
SMILES	eIF4H FP inh	CSC inhib	Rce1 inh	MT1-MMP act inh	MT1-MMP act inh RFP	Env fusion inh	PABP FP inh	UUG fidelity	others
O=C(Nc1ncccc1O)c1cccc(S(=O)(=O)NCc2ccccc2)c1	nt	-8	i	0	-2	nt	nt	-7
O=C(/C=C/c1ccc[nH]1)c1ccccc1	?	6	i	-1	1	-12	2	nt
COc1cccc(C(=S)N2CCOCC2)c1OS(=O)(=O)c1ccc(Cl)cc1	4	-11	i	-2	1	8	-8	-8
Cc1ncc([N+](=O)[O-])n1CC(=O)NC1CCCCCC1	-6	4	i	5	4	-5	-6	nt
CC(C)C(=O)NC(c1ccc([N+](=O)[O-])cc1)c1c(O)ccc2ccccc12 (stereo not given)	2	nt	i	-2	-7	-39	1	-5
CC(=O)Nc1ccc(-c2ccc(NC(C)=O)cc2)cc1	1	-4	i	3	3	-33	-17	nt
COc1ccccc1-c1noc(-c2cc(OC)c(OC)c(OC)c2)n1	-1	-9	i	17	-6	13	4	-16
COc1ccc([N+](=O)[O-])cc1NC(=O)COC(=O)C12CC3CC(CC(O)(C3)C1)C2	nt	nt	nt	7	5	10	nt	-13
COc1ccccc1CNC(=O)CSc1nc(-c2ccccc2)cn1N	-10	2	i	2	3	-75	12	-8
COc1ccc(C(=O)NCCCOC(C)C)cc1OC1CCN(C(C)=O)CC1	3	-12	i	-2	-1	-273	4	-16
CC(C)C1C(=O)N(Cc2cn(CCC3OCCO3)nn2)CCS(=O)(=O)N1Cc1ccc(-c2ccccc2Cl)cc1 (stereo not given)	nt	nt	nt	-2	-16	5	nt	-5
CCN(CC)c1ccc(NC(=O)CN2C(=O)NC3(CCc4ccccc43)C2=O)cc1 (stereo not given)	nt	11	nt	-2	2	nt	nt	-12
Cc1ccc(NC(=O)NC2CCCCC2)cc1S(=O)(=O)N1CCOCC1	0	4	i	3	-3	-13	-8	-6

Next results follow:
SMILES	eIF4H FP inh	CSC inhib	Rce1 inh	MT1-MMP act inh	MT1-MMP act inh RFP	Env fusion inh	PABP FP inh	UUG fidelity	others
Cc1nn(-c2ccccc2)c(C)c1NC(=O)c1cccs1	2	-1	i	2	3	-33	-8	4
Cc1cc(Nc2ccc(F)c(F)c2)nc(-c2ccccc2O)n1	2	5	i	-1	-2	6	-8	nt
FC(F)(F)c1nnc2n1N=C(c1ccccc1)CS2	-5	1	i	-5	-3	-5	8	-17
S=C(Nc1ccc(Oc2ccccc2)cc1)NC1CCCCC1	1	-6	i	-7	-7	8	20	-12
COCCCn1c(C)nnc1SCC(=O)NCc1ccco1	8	2	i	3	2	-37	-12	-30
CCCCC1=CC2=C(c3ccco3)C(=O)C(C)(OC(=O)c3ccc(OC)cc3)C(=O)C2=CN1c1ccccc1 (stereo not given)	111	29	i	nt	nt	nt	81*	-9	eIF4H FP inh retest=24;PABP FP inh retest=92*
CC1=C(C(=O)N2CCOCC2)C(c2ccc(Cl)cc2)NC(=S)N1 (stereo not given)	1	0	i	-2	3	-5	-2	nt
Cc1cccc(/C=C2\CS/C(=C\c3cccc(C)c3)C2=O)c1	34	20	i	-6	-1	-41	41	-15
O=c1[nH]c(C2CCCN(S(=O)(=O)c3ccccc3)C2)nc2c1nnn2Cc1ccccc1Br (stereo not given)	-4	-2	i	0	-4	36	-8	-4
Cc1nc(SCC(=O)c2ccccc2)n[nH]1	6	-17	i	3	0	-41	-4	-29
Cc1n[nH]c(C)c1CCc1nc2c3ccccc3nc(SCC(N)=O)n2n1	3	nt	nt	0	4	-39	8	-23
Cn1c(=O)c2c(nc(N3CCN(c4ccccn4)CC3)n2Cc2ccc(Cl)cc2Cl)n(C)c1=O	9	-7	i	-4	-1	nt	-10	-13
O=C(N/N=C\c1cn(-c2ccccc2)nc1-c1ccccc1)c1ccc2c(c1)OCO2	-10	24	i	10	-2	nt	5	-15
Cc1cccc(NCc2ccc(O)c3ncccc23)c1C	-6	-6	i	-18	-21	46	-1	nt
CC(=O)N(C1=C(Cl)C(=O)c2ccccc2C1=O)c1ccc(C(=O)O)cc1	-5	102*	i	-147	-5	-19	19	-15
CCC(Oc1ccccc1)C(=O)NCCOC (stereo not given)	-5	-8	i	0	4	2	-6	nt
CCOC(=O)C1=C(C)Nc2nc3ccccc3n2C1c1ccccc1 (stereo not given)	-7	23	i	2	4	5	-5	-22
COc1cc(-c2nnc(NC(=O)CS(=O)(=O)c3ccc(C)cc3)o2)cc(OC)c1OC	nt	-6	i	5	1	-10	nt	-18
CCCCN1C(=O)N(C)C2NC(=S)NC21 (stereo not given)	-6	-8	i	-4	1	2	12	-26
O=C(CSc1nnc(NC(=O)C2CC2)s1)NCc1ccccc1Cl	-9	-2	i	-1	4	18	4	-3
CN1CCC(N(C)S(=O)(=O)c2ccc(NC(=O)COc3cccc(C(F)(F)F)c3)cc2)CC1	nt	5	i	0	-4	3	nt	13
CCCNC(=O)C1(C)CCN(C(=O)c2cccc(C(F)(F)F)c2)C1 (stereo not given)	nt	nt	nt	4	3	-18	nt	1
c1ccc(-c2cn(CC3CCCCC3)nn2)cc1	5	9	i	3	4	-24	6	-13
Cc1ccc(CNC(=O)C2CC(c3ccc(C(F)(F)F)cc3)=NO2)o1 (stereo not given)	-4	20	i	4	1	-28	-11	44

Source: PubChem
